FGF22 binding – FGF22 (human) thermal shift binding | recombinant FGF22 thermal shift, SYPRO orange fluorescence; percent of sucrose octasulfate shift, DMSO zero | calls only at 9.99 µM | actives 1.5% (n = 340,000) | AID 651658;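 active means melting point raised past a set limit in the mean and every replicate; three in four hits are not shown here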
Target sequence (Q9HCT0 whole entry, looked up): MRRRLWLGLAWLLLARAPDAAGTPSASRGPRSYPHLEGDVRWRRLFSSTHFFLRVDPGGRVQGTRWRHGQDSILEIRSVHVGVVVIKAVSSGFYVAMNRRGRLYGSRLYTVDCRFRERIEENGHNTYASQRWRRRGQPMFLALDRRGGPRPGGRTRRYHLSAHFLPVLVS
Ecoli rRNA inh – selective bacterial rRNA inhibition in E. coli | actives 1.6% (n = 350,000) | AID 720706 | GFP signal change (wild-type ribosome), % (concentration not given with the values) | E. coli WT GFP vs humanized-ribosome RFP mutants, fluorescence, 24 h; active compounds read low; DMSO median 0, no signal -100;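 active means significant combined selectivity score with lowered wild-type GFP, culture density cut under 30%, mutant RFP and density less affected; inactive means any of these conditions unmet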; further: one replicate is shown; some compounds called inactive have numbers as strong as hits
Ecoli rRNA inh OD600 – recorded beside Ecoli rRNA inh, whose call it bears; OD600 change, %; measured here: OD600 growth;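 optical density of the mix in the first replicate; 0 = DMSO median and -100 = no signal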
Ecoli rRNA inh RFP – also measured in Ecoli rRNA inh; calls as there; RFP signal change, %; measured here: RFP humanized mutant strains;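 first replicate; 0 = DMSO median and -100 = no signal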
Starred values were filed as active, the others as inactive; i = inactive; & = joins results of further samples.

SMILES,FGF22 binding,Ecoli rRNA inh RFP,Ecoli rRNA inh,Ecoli rRNA inh OD600
C[C@@H]1CN([C@H](C)CO)C(=O)c2cc(NC(=O)Cc3ccccc3)ccc2O[C@@H](C)CCCCO[C@@H]1CN(C)C(=O)c1ccncc1,i,-3.2,2.3,4.6
C[C@H](CO)N1C[C@H](C)[C@@H](CN(C)CC2CCOCC2)Oc2ncc(C#Cc3ccccc3)cc2C1=O,i,-1.8,2.6,11.2
C[C@H]1CN([C@@H](C)CO)C(=O)Cc2cc(NS(=O)(=O)c3ccccc3)ccc2O[C@@H]1CN(C)C,i,-1.7,2.3,-0.6
C[C@H](O)C#Cc1cnc2c(c1)C(=O)N([C@H](C)CO)C[C@H](C)[C@@H](CN(C)C(=O)c1ccncc1)O2,i,1.2,6.7,10.3
CC(C)C#Cc1ccc2c(c1)O[C@@H](CN(C)Cc1ccccc1)[C@H](C)CN([C@@H](C)CO)S2(=O)=O,i,-2.3,5.4,-7.2
C[C@@H]1CN([C@H](C)CO)C(=O)c2cccc(NC(=O)c3ccncc3)c2O[C@H]1CN(C)CC1CCCCC1,i,-0.8,-9.7,-13.8
Cc1ccc(S(=O)(=O)Nc2ccc3c(c2)C(=O)N([C@@H](C)CO)C[C@@H](C)[C@H](CN(C)C(=O)NC2CCCCC2)OCCCC[C@H](C)O3)cc1,i,2.4,-0.3,-3.2
Cc1noc(C)c1S(=O)(=O)Nc1ccc2c(c1)CC(=O)N([C@@H](C)CO)C[C@H](C)[C@@H](CN(C)Cc1ccccc1)O2,i,2.3,-0.9,-5.0
CC=Cc1ccc2n(c1=O)C[C@H]1[C@H](CO)[C@@H](C(=O)NCC3CC3)[C@@H]2N1C(=O)CC (mixture of isomers),i,0.1,1.4,6.3
CN1[C@@H]2c3ccc(/C=C/c4ccccc4)c(=O)n3C[C@@H]2[C@@H](CO)[C@@H]1C(=O)N1CCOCC1,i,0.1,-0.6,3.6
Cc1cccc(S(=O)(=O)N2C[C@H](O)COC[C@H]3O[C@@H](CC(=O)Nc4ccccc4)CC[C@@H]32)c1,i,-1.8,-6.9,-4.9
C/C=C/c1cnc2c(c1)C(=O)N([C@@H](C)CO)C[C@@H](C)[C@H](CN(C)Cc1ccncc1)O2,i,-2.0,9.8,21.1
C[C@H](CO)N1C[C@H](C)[C@@H](CN(C)S(C)(=O)=O)Oc2ccc(NS(=O)(=O)c3ccc(F)cc3)cc2CC1=O,i,0.7,-0.2,12.8
O=C(Nc1ccc(F)cc1)N1CC(=O)N2[C@H](C1)[C@@H](c1ccc(-c3cccc(F)c3)cc1)[C@@H]2CO,i,-0.1,-46.6,-68.7
C[C@@H]1CCCCO[C@@H](CN(C)C)[C@H](C)CN([C@@H](C)CO)C(=O)c2cc(NS(=O)(=O)c3cccs3)ccc2O1,i,-3.2,1.6,-1.0
CCCNC(=O)N(C)C[C@@H]1Oc2ncc(C#Cc3ccncc3)cc2C(=O)N([C@@H](C)CO)C[C@H]1C,i,-0.2,0.5,-2.6
O=C(N[C@H]1CC[C@@H](CCn2cc(-c3ccccn3)nn2)O[C@@H]1CO)c1ccc(F)cc1,i,-2.6,1.6,3.1
CO[C@H]1CN(C)C(=O)c2cc(NC(C)=O)ccc2OC[C@@H](C)N(C(=O)Cc2ccccn2)C[C@H]1C,i,-2.4,1.8,6.3
CC(C)NC(=O)N(C)C[C@@H]1Oc2ncc(C#CCc3ccccc3)cc2C(=O)N([C@H](C)CO)C[C@@H]1C,i,-4.1,2.8,4.0
C[C@@H]1CN([C@@H](C)CO)C(=O)c2cc(NS(=O)(=O)c3cccs3)ccc2O[C@H]1CN(C)CC1CCCCC1,i,0.5,3.5,6.6
COc1ccc2c3c([nH]c2c1)[C@H](CO)N(C(=O)CC1CC1)CC31CN(Cc2ccncc2)C1,i,-0.5,-3.1,0.5
C/C=C/c1cnc2c(c1)C(=O)N([C@H](C)CO)C[C@@H](C)[C@@H](CN(C)C(=O)c1ccc3c(c1)OCO3)O2,i,-0.5,0.7,0.5
C[C@@H]1CN([C@H](C)CO)C(=O)c2cc(NS(=O)(=O)c3ccc(Cl)cc3)ccc2O[C@@H](C)CCCCO[C@@H]1CN(C)Cc1ccncc1,i,10.8,-9.6,-23.1
C[C@@H]1CN([C@H](C)CO)C(=O)Cc2cc(NC(=O)Nc3ccccc3)ccc2O[C@H]1CN(C)S(C)(=O)=O,i,-1.0,-1.0,4.8
O=C(N[C@H](C(=O)N1CCC[C@H]1C(=O)NC1CCCC1)C1CCCCC1)c1cccs1,i,4.1,15.1,23.6
C[C@@H]1CN([C@@H](C)CO)S(=O)(=O)c2ccc(C3=CCCCC3)cc2O[C@@H]1CN(C)C(=O)C1CC1,i,3.0,0.6,-12.3
O=C(C[C@@H]1CC[C@H]2[C@@H](COC[C@H](O)CN2C(=O)c2ccccc2F)O1)NCc1ccc(-c2ccccc2)cc1,i,18.8,-1.4,-22.6
N#C[C@H]1[C@@H](c2ccccc2C2=CCCC2)[C@H](CO)N1C(=O)c1cccc(F)c1,i,0.0,-9.7,-5.9
C[C@@H]1CCCCO[C@@H](CN(C)Cc2ccncc2)[C@H](C)CN([C@@H](C)CO)C(=O)c2cc(N(C)C)ccc2O1,i,0.0,-0.3,6.3
CCC(=O)N(C)C[C@@H]1Oc2cc(-c3ccc(OC)cc3)ccc2S(=O)(=O)N([C@@H](C)CO)C[C@@H]1C,i,1.5,-5.5,3.4
C[C@H](CO)N1C[C@H](C)[C@@H](CN(C)Cc2ccncc2)OCCCC[C@H](C)Oc2ccc(NS(=O)(=O)c3ccc(F)cc3)cc2C1=O,i,-1.1,-5.2,-3.8
CNC(=O)C[C@@H]1CC[C@H]2[C@@H](COc3ccc(NC(=O)Nc4cccc(C)c4)cc3C(=O)N2C)O1,i,1.7,-0.8,4.4
CCCNC(=O)N[C@@H]1CC[C@H](CC(=O)NC2CCCCC2)O[C@H]1CO,i,-0.7,0.0,5.6
CC(=O)NC[C@@H]1[C@H](c2ccccc2)[C@H](CO)N1C(=O)Cc1cccnc1,i,-3.9,3.4,13.9
C[C@H](CO)N1C[C@H](C)[C@H](CN(C)S(=O)(=O)c2ccc(Cl)cc2)Oc2ccc(NC(=O)Nc3ccc(F)cc3)cc2CC1=O,i,2.2,2.0,-2.9
CNC[C@H]1Oc2ccc(NC(=O)Nc3ccc4c(c3)OCO4)cc2C(=O)N([C@@H](C)CO)C[C@@H]1C,i,1.3,3.3,6.0
C/C=C/c1ccc2c(c1)[C@H]1[C@H](CCN1S(=O)(=O)c1ccccc1)[C@H](CO)N2,i,-1.1,-5.8,13.1
C[C@H](CO)N1C[C@H](C)[C@H](CN(C)CC2CC2)Oc2c(NC(=O)CCCCCC(=O)Nc3ccccc3N)cccc2C1=O,i,-1.5,3.8,-1.0
CCC(=O)N1CC2(C1)[C@H](c1ccccc1)[C@@H](CO)N2S(=O)(=O)Cc1ccccc1,i,-1.2,1.2,2.5
CCC(=O)N1C[C@H](C)[C@H](OC)CN(C)C(=O)c2cc(NC(=O)Nc3ccccc3)ccc2OC[C@H]1C,i,-0.3,-1.4,-4.0
CN(C)C(=O)C[C@@H]1CC[C@H]2[C@@H](COC[C@@H](O)CN2CC2CCCCC2)O1,i,-2.3,0.4,-1.1
C[C@@H]1CN([C@H](C)CO)C(=O)c2cccc(NC(=O)CCCCCC(=O)Nc3ccccc3N)c2O[C@@H]1CN(C)C(=O)Nc1ccc2c(c1)OCO2,i,-0.5,0.8,1.4
COCC(=O)N(C)C[C@@H]1Oc2cc(-c3ccc(C#N)cc3)ccc2S(=O)(=O)N([C@@H](C)CO)C[C@H]1C,i,-2.6,4.3,2.7
COc1ccc(NC(=O)N(C)C[C@@H]2Oc3c(NS(=O)(=O)c4cn(C)cn4)cccc3C(=O)N([C@@H](C)CO)C[C@H]2C)cc1,i,-2.4,4.2,-0.4
Cc1noc(C)c1NC(=O)Nc1ccc2c(c1)C(=O)N([C@@H](C)CO)C[C@@H](C)[C@@H](CN(C)C(=O)Nc1ccccc1)OCCCC[C@@H](C)O2,i,-0.7,-0.4,-0.8
Cc1noc(C)c1NC(=O)N(C)C[C@@H]1OCCCC[C@H](C)Oc2ccc(NS(=O)(=O)c3cn(C)cn3)cc2C(=O)N([C@@H](C)CO)C[C@@H]1C,i,-1.6,3.1,7.4
COCCN(C[C@@H]1[C@@H](c2ccccc2)[C@@H](CO)N1C(C)=O)C(=O)c1ccncc1,i,2.9,-0.2,-1.3
C[C@H](CO)N1C[C@H](C)[C@H](CN(C)Cc2ccc(C(F)(F)F)cc2)OCCCC[C@H](C)Oc2ccc(NC(=O)NC3CCCCC3)cc2C1=O,i,2.2,-1.4,1.9
C[C@H]1CN([C@@H](C)CO)C(=O)c2cc(C#CCC3CCCC3)cnc2O[C@@H]1CN(C)Cc1ccccn1,i,33.1,-16.9,-50.0
C[C@H](CO)N1C[C@H](C)[C@@H](CN(C)Cc2ccc(Oc3ccccc3)cc2)Oc2ccc(NC(=O)CCCN(C)C)cc2CC1=O,i,-17.0,-55.8,-79.2
C[C@@H]1CCCCO[C@H](CN(C)C(=O)Nc2cccc3ccccc23)[C@H](C)CN([C@@H](C)CO)C(=O)c2cc(NC(=O)Nc3ccc(C(F)(F)F)cc3)ccc2O1,i,2.9,0.2,3.5
CN(C[C@H]1[C@H](c2ccccc2)[C@H](CO)N1Cc1ccccn1)S(C)(=O)=O,i,1.0,-2.1,9.1
COc1ccccc1CN1[C@H](CO)[C@@H]2c3ccccc3N(C(=O)c3ccncc3)C[C@@H]21,i,-1.2,2.0,1.0
CN(C)CC#Cc1ccc([C@H]2[C@H]3CN(C(=O)c4ccc5c(c4)OCO5)CCCCN3[C@H]2CO)cc1,i,-3.1,3.1,7.1
C[C@@H]1CCCCO[C@@H](CN(C)S(=O)(=O)c2ccccc2)[C@H](C)CN([C@@H](C)CO)C(=O)c2cc(NS(=O)(=O)c3cn(C)cn3)ccc2O1,i,-0.3,1.8,5.5
C/C=C/c1cnc2c(c1)C(=O)N([C@H](C)CO)C[C@H](C)[C@@H](CN(C)S(=O)(=O)c1ccc(C)cc1)O2,i,1.8,-5.4,-11.7
COc1ccc(-c2cnc3c(c2)C(=O)N([C@@H](C)CO)C[C@@H](C)[C@H](CN(C)C(=O)NC2CCCC2)O3)cc1,i,-0.2,-3.8,-8.8
N#C[C@@H]1[C@@H](c2ccccc2)[C@H](CO)N1C(=O)c1cccnc1,i,-4.7,0.7,0.6
O=S(=O)(c1ccccc1F)N1CCCCN2[C@H](C1)[C@@H](c1ccc(-c3cncnc3)cc1)[C@@H]2CO,i,-4.7,-0.5,10.4
CCN1[C@H](C(=O)NCCc2cn(C)cn2)[C@@H](CO)[C@@H]2Cn3c(ccc(-c4ccncc4)c3=O)[C@@H]21,i,-1.5,0.5,2.3

Additional structures
SMILES,FGF22 binding,Ecoli rRNA inh RFP,Ecoli rRNA inh,Ecoli rRNA inh OD600
COc1ccc(NC(=O)Nc2ccc3c(c2)[C@@H]2C[C@H](CC(=O)NCc4ccccc4F)O[C@@H](CO)[C@@H]2O3)cc1,i,-6.6,2.0,8.3
COc1ccccc1-c1ccc2c(c1)O[C@@H](CN(C)S(=O)(=O)c1ccc(F)cc1)[C@@H](C)CN([C@@H](C)CO)S2(=O)=O,i,-1.8,-4.5,1.5
C[C@H](CO)N1C[C@H](C)[C@@H](CN(C)C(=O)Nc2ccc(F)cc2)Oc2c(NC(=O)Nc3cccc4ccccc34)cccc2C1=O,i,-0.6,-0.7,3.4
C[C@@H]1CN([C@H](C)CO)C(=O)Cc2cc(NC(=O)CCN3CCOCC3)ccc2O[C@@H]1CN(C)S(=O)(=O)c1ccc(F)cc1,i,5.1,4.0,7.2
COc1ccc(S(=O)(=O)Nc2ccc3c(c2)C(=O)N([C@H](C)CO)C[C@H](C)[C@H](CN(C)C(=O)Nc2ccc(F)cc2)OCCCC[C@@H](C)O3)cc1,i,-0.9&5.0,-0.6&12.8,-5.3&-0.7
O=C(C[C@H]1C=C[C@@H](NC(=O)Nc2ccccc2F)[C@@H](CO)O1)NCc1ccc(F)cc1,i,-3.5,-3.8,-1.9
CN1[C@@H]2c3ccc(-c4ccc(F)cc4)c(=O)n3C[C@H]1[C@H](CO)[C@H]2C(=O)N1CCCCC1,i,-4.1,1.8,0.9
CCCc1cn(CC[C@@H]2CC[C@H](NC(=O)Cc3cccnc3)[C@@H](CO)O2)nn1,i,-0.4,0.3,-4.1
C[C@@H]1CCCCO[C@@H](CN(C)C(=O)CCCN(C)C)[C@H](C)CN([C@@H](C)CO)C(=O)c2cc(NC(=O)CCC(F)(F)F)ccc2O1,i,-0.2,2.0,-2.4

Some entries already given, limited to Ecoli rRNA inh RFP, FGF22 binding and Ecoli rRNA inh:
| mol | Ecoli rRNA inh RFP | FGF22 binding | Ecoli rRNA inh |
| --- | --- | --- | --- |
| CC(C)NC(=O)N(C)C[C@@H]1Oc2ncc(C#CCc3ccccc3)cc2C(=O)N([C@H](C)CO)C[C@@H]1C | -4.1 | i | 2.8 |
| C[C@@H]1CCCCO[C@@H](CN(C)Cc2ccncc2)[C@H](C)CN([C@@H](C)CO)C(=O)c2cc(N(C)C)ccc2O1 | 0.0 | i | -0.3 |
| C[C@@H]1CN([C@H](C)CO)C(=O)Cc2cc(NC(=O)Nc3ccccc3)ccc2O[C@H]1CN(C)S(C)(=O)=O | -1.0 | i | -1.0 |

Compound activity as filed in PubChem BioAssay.

Some of the compounds tested; count on the stated rates, not on these rows.
